Ecoli growth – E. coli growth inhibition | AID 1053175 | OD600 absorbance (concentration not given with the values) | Escherichia coli growth, OD600, 23 h; active compounds read low | 330,000 tested, 0.21% active;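 active = OD600 absorbance below the run mean of sample wells minus 3.6 SD, in any replicate, cut at about 0.56 in these data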;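 also: stock transfer was 300 nL into about 60 µL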
UCH37 DUB inh – blocks the human deubiquitinase UCH37; purified proteasome/UCH37, Ub-AMC cleavage fluorescence; inhibition, % (test concentration not listed); 330,000 tested, 0.33% active;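 active = mean of two replicates above 20%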;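 also: 0% = compound-free wells with enzyme and 100% = wells lacking proteasome; stock transfer was 100 nL into about 20 µL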
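Material: human UCH37 enzyme supplied as purified proteasome complex. Measure: % inhibition of Ub-AMC cleavage fluorescence. Medium: pH 7.4 Tris-HCl (50 mM) with ovalbumin, ATP-MgCl2, DTT. Times: 30 min preincubation with enzyme, 25 min cleavage at room temperature. Detection: AMC fluorescence intensity at 355/460 nm.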
HNF4A DNA FP – change in binding of human HNF4 alpha to DNA. P41235. HNF4a-FITC DNA binding, fluorescence polarization, 1 h. activity change, % at 10 µM. 360,000 tested, 0.3% active; in the data active = activity change above about 30%, passing the limit was not always enough;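 also: controls were the assay level and a saturating level of protein; the project sought stronger binding though the title names inhibitors; some compounds called inactive have numbers as strong as hits; positive values seem to mean higher polarization but the record does not say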
Target sequence (P41235 whole entry, looked up): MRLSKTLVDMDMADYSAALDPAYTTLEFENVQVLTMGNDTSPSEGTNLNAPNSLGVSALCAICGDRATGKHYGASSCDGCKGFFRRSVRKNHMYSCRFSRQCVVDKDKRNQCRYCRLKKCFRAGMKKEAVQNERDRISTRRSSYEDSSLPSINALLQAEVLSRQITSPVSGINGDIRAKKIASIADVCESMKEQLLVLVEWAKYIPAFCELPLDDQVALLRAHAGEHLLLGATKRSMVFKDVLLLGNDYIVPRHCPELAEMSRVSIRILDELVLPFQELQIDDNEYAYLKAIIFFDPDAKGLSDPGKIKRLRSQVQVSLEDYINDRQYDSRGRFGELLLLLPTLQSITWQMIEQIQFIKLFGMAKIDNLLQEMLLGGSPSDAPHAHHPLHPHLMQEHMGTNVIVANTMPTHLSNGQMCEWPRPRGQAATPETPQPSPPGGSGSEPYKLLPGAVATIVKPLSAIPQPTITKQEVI
FGF22 binding – FGF22 (human) thermal shift binding | Q9HCT0 | recombinant FGF22 thermal shift, SYPRO orange fluorescence; percent of sucrose octasulfate shift, DMSO zero | 340,000 tested, 1.5% active | calls only at 9.99 µM;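 active = melting point raised past a set limit in the mean and every replicate; three in four hits are not shown here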
Target sequence (Q9HCT0 whole entry, looked up): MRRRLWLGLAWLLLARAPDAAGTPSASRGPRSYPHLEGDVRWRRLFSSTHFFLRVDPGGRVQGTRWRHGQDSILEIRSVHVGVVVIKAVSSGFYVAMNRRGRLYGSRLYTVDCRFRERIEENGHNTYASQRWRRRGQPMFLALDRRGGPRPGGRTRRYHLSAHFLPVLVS
B2AR ag – agonists of human beta-2 adrenergic receptor inducing internalization | Am2.2-beta2AR cells, FAP receptor internalization, flow cytometry; reference of the scale not given here | response, % (test concentration not listed) | 340,000 tested, 0.43% active;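 active = response above a set limit, near 3 SD of response in nonfluorescent compounds, cut at about 42% in these data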;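 also: stock transfer was 100 nL into about 11 µL; a reference agonist was the positive control; negative values mostly stem from fluorescent compounds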
Ecoli rRNA inh – selective bacterial rRNA inhibition in E. coli | GFP signal change (wild-type ribosome), % (concentration not given with the values) | 350,000 tested, 1.6% active | E. coli WT GFP vs humanized-ribosome RFP mutants, fluorescence, 24 h; active compounds read low; DMSO median 0, no signal -100;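 active = significant combined selectivity score with lowered wild-type GFP, culture density cut under 30%, mutant RFP and density less affected; inactive = any of these conditions unmet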; also: one replicate is shown; some compounds called inactive have numbers as strong as hits
ALR H2O2 inh – inhibitors of human sulfhydryl oxidase ALR; purified ALR, DTT oxidation, H2O2 HRP-luminol luminescence; P55789; AID 485317; 290,000 tested, 3.8% active; inhibition, % (no concentration beside the values);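 active = mean and each replicate at 75% or more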;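 also: stock transfer was 7.5 nL into about 7.5 µL; 0% = neutral wells and 100% = wells with inactivated enzyme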
Target sequence (P55789 whole entry, looked up): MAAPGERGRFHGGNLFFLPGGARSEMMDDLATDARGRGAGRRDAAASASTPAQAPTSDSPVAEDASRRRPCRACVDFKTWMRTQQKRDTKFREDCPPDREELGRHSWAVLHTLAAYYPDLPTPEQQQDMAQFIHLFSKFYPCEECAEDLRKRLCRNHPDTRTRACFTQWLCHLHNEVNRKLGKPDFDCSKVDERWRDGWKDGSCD
Ecoli rRNA inh OD600 – also measured in Ecoli rRNA inh; calls as there; OD600 change, %; measured here: OD600 growth;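 optical density of the mix in the first replicate; 0 = DMSO median and -100 = no signal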
Ecoli rRNA inh RFP – further read-out of Ecoli rRNA inh, marked with its call; RFP signal change, %; measured here: RFP humanized mutant strains;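 first replicate; 0 = DMSO median and -100 = no signal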
An asterisk follows results filed as active; i = inactive; . = not tested or not shown; & = joins results of further samples.

Results follow in this order: Ecoli growth	UCH37 DUB inh	HNF4A DNA FP	FGF22 binding	B2AR ag	Ecoli rRNA inh	Ecoli rRNA inh OD600	Ecoli rRNA inh RFP	ALR H2O2 inh
1	CCC(C)NC(=O)c1ccc(C2SCC(=O)N2Cc2ccccc2)cc1 (stereo unspecified)
→ 0.654	-0.6	-0.4	i	19.4	20.4	13.1	0.7	-19.5
2	CCN(CC)CCCN1C=C2C(=O)C(C)(OC(=O)CCc3ccccc3)C(=O)C=C2C=C1c1ccc(C#N)cc1 (stereo unspecified)
→ 0.694	-18.9	-7.5	.	1.8	.	.	.	-48.2
3	CCS(=O)(=O)Nc1cccc(-c2cn3c(n2)SCC3)c1
→ 0.686	-0.1	-3.6	i	0.4	5.9	12.1	-0.3	4.2
4	COc1ccc(OC)c(C2C(C(C)=O)=C(O)C(=O)N2CCC(=O)O)c1 (stereo unspecified)
→ 0.673	8.8	-0.9	i	-2.2	-4.8	-12.9	-1.0	-5.8
5	CC1(C(=O)NCc2ccccc2)CSCC(=O)N1C1CC1 (stereo unspecified)
→ .	.	2.6	i	.	9.7	1.7	3.4	.
6	CCS(=O)c1scc(-c2ccc(Cl)cc2)c1C#N (stereo unspecified)
→ 0.644	1.2	-1.5	i	-15.0	-31.7*	-19.3*	-9.3*	5.7
7	Cc1cc(C)n(Cc2ccc(NC(=O)c3ccc(COc4ccccc4Br)cc3)cc2)n1
→ 0.714	-0.7	0.4	.	2.8	.	.	.	-27.4
8	O=C1NC(=O)C2(CCC(C3CCCCC3)CC2)N1 (stereo unspecified)
→ 0.68	3.0	-5.8	i	-3.7	3.3	3.0	0.9	.
9	O=C(CSc1nc2nc(-c3cccs3)cc(C(F)(F)F)c2c(=O)[nH]1)NCc1ccco1
→ 0.741	-53.1	-0.7	.	-20.0	.	.	.	17.5
10	COc1ccc(-c2nc(CSCC(=O)NC3CCCc4ccccc43)c(C)o2)cc1OC (stereo unspecified)
→ 0.702	-1.5	3.8	.	2.4	.	.	.	.
11	CC(C)C(=O)OC1CCS(=O)(=O)c2sccc21 (stereo unspecified)
→ 0.66	-0.1	0.0	i	-7.7	16.6	10.4	0.7	4.2
12	COc1ccc(N(CC(=O)NC2CCCCC2)C(=O)CNC(=O)c2ccco2)cc1
→ 0.667	-1.0	2.4	i	-7.4	8.2	5.5	2.6	1.3
13	CC(NC(=O)C1CCC(CNc2c(N3CCCCC3)c(=O)c2=O)CC1)c1ccccc1 (stereo unspecified)
→ 0.691	-1.4	0.7	i	-1.2	13.4	5.5	-6.1	-2.4
14	O=C(NCCc1ccccc1)C(c1ccccc1)N(C(=O)c1csnn1)C1CC1 (stereo unspecified)
→ 0.636	-0.7	1.0	.	7.3	-10.1	-18.9	0.1	.
15	O=P(COCCOCCOCP(=O)(c1ccccc1)c1ccccc1)(c1ccccc1)c1ccccc1
→ 0.687	-1.8	-5.5	.	7.2	9.8	5.7	0.6	0.2
16	COc1ccccc1NS(=O)(=O)c1cccc(C(=O)OCC(=O)NC2CC2)c1
→ 0.68	5.7	3.4	i	6.9	-5.0	4.7	-2.2	1.6
17	CCN1CCN(CC(=O)Nc2cc(C)c(C)cc2[N+](=O)[O-])CC1
→ 0.677	2.2	1.3	i	-6.0	9.1	10.7	1.0	-4.2
18	O=C(CSc1ccc([N+](=O)[O-])cc1)NNC(=O)c1ccccc1F
→ 0.667	10.2	2.5	i	-3.4	-9.5	-1.6	-0.4	-2.1
19	O=C(NCCc1ccc(F)cc1)Nc1ccc([N+](=O)[O-])cc1
→ 0.553	1.8	0.1	i	8.7	-24.6	-49.4	-2.8	-2.4
20	CN(c1ccccc1)S(=O)(=O)c1cccc(NC(=O)c2cncc(Br)c2)c1
→ 0.671	1.7	1.6	i	3.4	-20.6	-20.7	-3.0	-4.0
21	CCCCn1nc(C(=O)Nc2c(C)n(C)n(-c3ccccc3)c2=O)c2ccccc2c1=O
→ 0.687	1.2	-0.7	i	-2.1	1.1	3.2	-3.3	2.2
22	O=S(=O)(NCc1ccco1)N1CCOCC1
→ 0.745	2.1	2.0	.	10.0	.	.	.	.
23	C#CCN(C[C@@H]1[C@@H](OC(=O)NCc2ccc(OC)c(OC)c2)[C@@H](OC(=O)NCc2ccc(OC)c(OC)c2)CN(C(=O)OC(C)C)N1C(=O)OC(C)C)S(=O)(=O)c1ccc(C)cc1
→ .	.	-3.6	i	.	10.6	6.0	-1.4	.
24	C[C@@H]1CN(C(=O)c2nc3ccc(Cl)cn3c2CNCC[C@@H]2C[C@@H]3C=C[C@H]2C3)C[C@H](C)O1
→ 0.726	0.2	1.1	i	-3.5	-0.2	0.1	-2.2	.
25	COC(=O)c1ccccc1NC(=O)c1ccc(COc2ccc(C)c(C)c2)o1
→ 0.699	2.5	1.9	.	-9.0	.	.	.	-5.5
26	S=C(Nc1ccccc1)N1CCC(Cc2ccccc2)CC1
→ 0.637	1.0	1.1	.	3.7	-16.9	-12.0	-8.7	.
27	CCN(c1ccc(OC)cc1)S(=O)(=O)c1nnc(NC(=O)C(C)C)s1
→ 0.667	0.9	-0.7	i	-1.5	13.8	13.4	0.0	-4.5
28	CCOCCCN(C(=O)c1ccco1)C(C(=O)NC1CCCC1)c1cccc(OC)c1OC (stereo unspecified)
→ 0.677	-1.7	0.8	.	-3.7	.	.	.	.
29	CSc1ncccc1C(=O)OCC(=O)c1cc2ccccc2o1
→ 0.684	3.2	1.8	.	-7.4	.	.	.	-8.4
30	O=C(/C=C/c1ccncc1)c1cc(Cl)ccc1O
→ .	.	4.7	i	-10.9	-5.9	4.1	7.5	.
31	Cc1cc(C(=O)Nc2ccncc2)c2ccccc2n1
→ 0.725	0.5	3.4	i	-5.4	4.5	7.4	-0.2	-0.4
32	COc1ccc(CNC(=O)CSc2nc3ccc(C)cc3[nH]2)cc1OC
→ 0.699	4.8	-3.5	i	-2.7	-2.6	-5.7	2.3	-2.0
33	COC(=O)c1c(NC(=O)COC(=O)c2ccc(Cl)cc2[N+](=O)[O-])sc2c1CCCCC2
→ 0.696	3.8	-1.6	i	-2.2	9.8	2.7	1.1	-0.4
34	COc1ccc(CN(C)C[C@H]2OCCCC[C@@H](C)Oc3ccc(NS(C)(=O)=O)cc3C(=O)N([C@H](C)CO)C[C@@H]2C)cc1
→ .	.	4.3	i	.	6.0&0.3	5.9&0.0	3.8&-0.1	.
35	CCOC(=O)c1c(NC(=O)C2CCCCC2)sc2c1CCN(CC)C2
→ 0.753	0.9	-1.4	i	-16.5	-3.6	-1.8	1.1	0.0
36	CC(=O)OC1CC(c2cc(C(C)(C)C)c(O)c(C(C)(C)C)c2)=NO1 (stereo unspecified)
→ 0.704	1.6	-3.0	i	-1.0	-21.0*	-7.7*	-7.0*	.
37	COc1ccccc1[C@@H]1C(c2ccc(F)cc2)=NN(c2ccccc2)[C@H]1C(=O)N1CCOC1=O
→ .	-29.5	-0.4	.	5.6	5.7	3.9	3.2	0.0
38	O=C(NC1CCCCC1)C1CCCN(S(=O)(=O)c2cccc3cccnc23)C1 (stereo unspecified)
→ 0.68	0.8	4.5	i	4.0	-1.9	-3.1	0.7	-1.3
39	Cc1cccc(NC(=S)NCC(c2cccnc2)N2CCOCC2)c1C (stereo unspecified)
→ 0.723	3.9	-3.0	i	-5.2	.	.	.	0.4
40	CC1CC(=O)c2cn3c(nc2C1)nc1ccccc13 (stereo unspecified)
→ 0.651	2.5	-2.6	.	-18.3	.	.	.	-16.8
41	c1ccc(COc2cccc(CNCc3cccnc3)c2)cc1
→ 0.65	4.7	2.3	.	-4.0	6.0	-0.9	-1.0	-4.4
42	CC(NC(=O)CCc1ccc(S(=O)(=O)NC2CCCCC2)cc1)c1ccccc1 (stereo unspecified)
→ 0.759	1.7	4.2	.	-0.7	.	.	.	-19.3
43	OCC1(Cc2cccc(Cl)c2)CCCN(Cc2sc(N3CCCC3)nc2Cl)C1 (stereo unspecified)
→ 0.66	1.6	1.4	i	0.8	-20.9	-10.2	19.8	0.8
44	O=C(CSCc1c(Cl)cccc1Cl)NN=C1CCCC1
→ 0.705	1.3	1.7	i	4.2	-8.0	-33.5	3.3	19.0
45	CCn1c(C)cs/c1=N\S(=O)(=O)c1ccccc1
→ .	.	-2.5	i	6.2	-7.1	-1.2	8.9	.
46	CC(=O)c1ccc(NC(=O)CSc2n[nH]c(-c3cccnc3)n2)cc1
→ 0.626	0.1	-3.1	i	-3.6	-4.7	-7.5	-0.5	1.4
47	COC(=O)C1CC(O)CN1C(=O)NC1CCCCC1 (stereo unspecified)
→ 0.694	2.8	.	i	.	8.1	9.5	2.0	6.0
48	CN(CC(=O)N1CCN(Cc2ccccc2)CC1)C(=O)Cc1cccc2ccccc12
→ 0.701	4.8	0.9	i	-10.0	-5.1	-17.5	13.4	-10.3
49	Cc1ccc(S(=O)(=O)N2CCOCC2)cc1C(=O)OCC(=O)Nc1ccc2c(c1)OCO2
→ 0.745	5.2	1.6	.	-10.7	.	.	.	-9.5
50	CCCCn1c(=N)n(CC(O)COc2cccc(C)c2)c2ccccc21 (stereo unspecified)
→ 0.672	2.4	4.3	.	45.7*	.	.	.	-10.8
51	CC(C)CC(=O)Nc1ccc(S(=O)(=O)NCc2ccco2)cc1
→ 0.727	0.6	1.5	.	-7.3	3.4	5.2	-2.7	-13.5
52	COc1cc(OC)c(C2SCCN2S(=O)(=O)c2ccc(F)cc2)cc1OC (stereo unspecified)
→ 0.725	6.3	-0.8	.	2.7	.	.	.	2.4
53	COc1ccccc1C(=O)NC(=O)COC(=O)c1ccc(Cl)cc1[N+](=O)[O-]
→ 0.604	0.4	-1.1	i	-8.9	-0.1	1.2	-1.5	-9.8
54	Cn1nnnc1Sc1ccc(C(=O)O)cc1[N+](=O)[O-]
→ 0.66	8.7	3.6	i	5.5	6.5	-5.2	-5.6	-7.2
55	O=C(NCc1ccco1)c1sc(=S)n2c1[nH]c(=O)c1ccccc12
→ 0.638	14.8	-1.2	.	9.8	.	.	.	98.3*
56	CCCCNC(=O)CCc1nc2cccnc2n1Cc1ccc(OC)cc1
→ 0.731	-1.8	4.9	.	-7.5	.	.	.	11.0
57	Cc1ccc([C@H]2N[C@]3(CCCN(Cc4ccc(F)cc4)C3=O)[C@H]3C(=O)N(C)C(=O)[C@@H]23)cc1
→ .	.	-0.1	i	.	-0.6	6.8	-0.8	.
58	CNC(=O)/C(C#N)=C\c1ccc(CNS(=O)(=O)c2ccccc2)o1
→ 0.624	15.2	-4.5	.	4.6	.	.	.	-5.8
59	Cc1cc(OC(=O)c2cccc(C(F)(F)F)c2)c([N+](=O)[O-])c(=O)[nH]1
→ 0.72	9.8	8.6	i	4.0	10.0	9.5	-1.5	-4.4
60	COCc1cc(C)nc(Nc2cc(C)ccc2C)c1C#N
→ 0.714	-1.1	1.4	i	6.3	7.9	3.3	-0.7	-9.6

The list continues:
Results follow in this order: Ecoli growth	UCH37 DUB inh	HNF4A DNA FP	FGF22 binding	B2AR ag	Ecoli rRNA inh	Ecoli rRNA inh OD600	Ecoli rRNA inh RFP	ALR H2O2 inh
61	C=Cc1ccc(Cn2c(C)c(C(=O)NCc3cccc(C(F)(F)F)c3)sc2=O)cc1
→ .	.	-0.6	i	.	-4.9	-12.1	4.7	.
62	O=C(Cn1ccc([N+](=O)[O-])n1)NCCc1c[nH]c2ccccc12
→ 0.69	3.7	2.9	i	-1.4	5.5	1.2	-0.6	.
63	Cc1c(NC(=S)NC(=O)CC(C)C)c(=O)n(-c2ccccc2)n1C
→ 0.642	2.8	0.8	i	-5.8	14.7	11.7	-0.9	-20.2
64	CCCCn1c(N)c(N(CCOC)C(=O)c2ccc(-c3ccc([N+](=O)[O-])cc3)o2)c(=O)[nH]c1=O
→ .	.	5.8	i	4.1	5.6	3.8	0.1	-14.5

Screening data: PubChem, several laboratories

An excerpt; count on the stated rates, not on these rows.
